Source: PubChem (National Center for Advancing Translational Sciences (NCATS))
AmpC nodet inh: AmpC beta-lactamase inhibition, detergent-free assay; AID 585; Potency, µM (top dose mostly 28.7 µM), for inactives: at the highest dose activity change, negative = inhibition; hit rate 1.8% among 71,000; P00811; AmpC nitrocefin hydrolysis, absorbance 480 nm, no detergent; potencies from a single point are estimates; active = falling curve, for most hits resting on a single point; inconclusive = weak or doubtful change; inactive = flat or rising curve; also: % of control where 0% means no effect; about half of the hits show no inhibition at the top dose; a quarter of the inactives give rising signals
Target sequence (P00811 whole entry, looked up): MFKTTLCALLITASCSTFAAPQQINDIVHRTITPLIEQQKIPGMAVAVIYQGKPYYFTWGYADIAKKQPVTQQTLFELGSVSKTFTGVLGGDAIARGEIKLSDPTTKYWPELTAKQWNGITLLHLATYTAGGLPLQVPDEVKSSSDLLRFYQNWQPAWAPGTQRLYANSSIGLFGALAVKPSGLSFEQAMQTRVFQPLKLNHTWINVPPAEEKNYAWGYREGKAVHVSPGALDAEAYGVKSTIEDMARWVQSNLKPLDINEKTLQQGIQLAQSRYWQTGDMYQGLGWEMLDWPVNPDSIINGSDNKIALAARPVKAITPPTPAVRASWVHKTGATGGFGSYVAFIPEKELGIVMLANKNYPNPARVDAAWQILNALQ
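AmpC in 20 mM phosphate buffer pH 7.0 was preincubated 15 min at room temperature with compounds. Nitrocefin (800 uM stock) was then added and hydrolysis followed at 480 nm every 20 s for 4 min.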
* = called active by the depositor; & = joins results of further samples; [ ] = another dose, or the depositor's remark. Potency is read from the fitted curve at half-maximal effect. Some of the compounds tested; rates above refer to the full screens.

SMILES	AmpC nodet inh
O=C(Nc1ccccc1N1CCOCC1)c1ccc(Br)o1	-4%
O=C(CSc1nnc(CNc2ccc(Cl)cc2)o1)Nc1nc2ccccc2s1	4µM*[single pt active]
COc1ccc(CCNC(=O)C2CCN(S(=O)(=O)N3CCOCC3)CC2)cc1OC	8%
Cc1cccn2c(=O)c3cc(C#N)c(=O)n(Cc4cccnc4)c3nc12	-6%
CC(C)(C)NS(=O)(=O)c1ccc(NS(=O)(=O)c2ccc(F)cc2)cc1	-12%
COc1cccc(CN2C(=O)CCC2(C)C(=O)NC2CCCCCC2)c1 (stereo unspecified)	41%
N[C@@H](C(=O)O)[C@H](O)C(=O)O	-2%
COc1nnc(-c2ccc(C)c(S(=O)(=O)NCCO)c2)c2ccccc12	58%
CCNc1ncc2nc(-c3ccc(Cl)cc3)c(=O)n(C3CC3)c2n1	-5%
COc1ccc(NS(=O)(=O)c2cc(OC)ccc2NC(=O)c2cc(C)oc2C)cc1	24%
Cc1cc(NC(=O)CCC(=O)N(CCC(C)C)C(C(=O)NC2CCCC2)c2cccnc2)no1 (stereo unspecified)	71%
COCCOC(=O)c1c(C)oc2ccc(NS(=O)(=O)c3ccc(C(=O)O)cc3)cc12	-5%
CCC1(CC)C(=O)NC(=O)NC1=NCCc1ccc(O)cc1	-1%
CCOC(=O)N1CCN(C(=O)Cn2c(=O)sc3ccccc32)CC1	-12%
COc1ccc2[nH]c(O)c(NC(C)=O)c2c1	53%
CCn1cc(Br)c(C(=O)Nc2cccc(Cl)c2)n1	-4%
Cc1ccc(-c2nnn(CC(=O)N3CCN(c4ccccc4)CC3)n2)o1	3%
O=C(CSc1nnnn1-c1ccccc1)NC(=O)Nc1ccc2c(c1)OCCO2	-20%
COc1cc(NC(=O)C2CCCCN2)ccc1OCC(C)C (stereo unspecified)	12%
CC1(C)Cc2c(sc3c2c(=N)n(Cc2ccco2)c(=O)n3Cc2ccc(Cl)cc2)CO1	50%
O=C(Nc1ccc(O)cc1)c1ccc(C(=O)c2ccccc2)o1	-14%
COC(=O)Cn1c(C(=O)N(C)C)cc2c1C[C@H]1CN(C(=O)c3ccccc3)[C@@](Cc3ccc(F)cc3)(C(=O)OC)[C@@H]21	156%
CCN(CC)S(=O)(=O)c1cccc(-c2nnc(SCC(N)=O)n2CCc2ccccc2)c1	79%
Cc1ccc(S(=O)(=O)CC(=O)N2CCCC2)cc1	-2%
O=C(c1ccccc1)N1CCN(C(=O)c2ccccc2Br)CC1	10%
O=C(Nc1ccc(CN2CCOCC2)cc1)c1cccc(F)c1	-6%
CC1CN(C(=O)CSc2nnc(-c3ccncc3)n2-c2ccccc2)CC(C)O1 (stereo unspecified)	15%
CC(=O)Nc1c(C(=O)N2CCN(c3ncccn3)CC2)cnn1-c1ccccc1Cl	-4%
CC(=O)N1CCc2cc(S(=O)(=O)NC3CCCc4ccccc43)ccc21 (stereo unspecified)	33%
COc1cc2c(cc1OC)C(C(=O)NCCN1CCOCC1)C1c3ccccc3CCN1C2=O (stereo unspecified)	19%
CN(CC(=O)N1CCN(C2CCCCC2)CC1)S(=O)(=O)c1cccc2nsnc12	25%
Cn1nc(-c2ccc(N3CCOCC3)c(NC(=O)COc3ccccc3)c2)c2ccccc2c1=O	99%
Cc1cccc(NC(=O)c2sc3nc(-c4ccccc4)cn3c2C)n1	104%
CC(C)c1ccc(OC(=O)NCCO)cc1	5%
C=CCn1c(SCC(=O)Nc2sccc2C(N)=O)nc2sc(C)c(C)c2c1=O	35%
COc1cccc(C2NC(CCSC)(C(=O)O)C3C(=O)N(C(C)C)C(=O)C23)c1O (stereo unspecified)	18%
O=c1c2c(-c3ccccc3)csc2nc2n1CCC2	6%
CCCCn1c(CN2CCN(C(=O)OCC)CC2)nc2c1c(=O)n(C)c(=O)n2C	76%
CCOc1ccc(Br)cc1/C=N/O	3%
Cc1cnc(C(=O)OCC(=O)NC(=O)NC(C)C)cn1	-8%
O=C(c1cccc(F)c1)N1CCN(C(=O)C2CC2)CC1	-9%
COc1ccc(Cl)cc1-c1nc(-c2ccc(Br)o2)no1	3.2µM*[single pt active]
CC1=C(C)SC(=C(C#N)c2nnc(N3CCOCC3)n2-c2ccccc2)S1	72%
CCN1CCN(CCCNC(=O)Cn2cc3c(n2)CCCC3)CC1	8%
O=C(Nc1nc2c(s1)C(=O)CCC2)c1ccccc1	11%
O=C(c1ccco1)N1CCN(C(=O)c2oc(=O)c3ccccc3c2-c2ccccc2)CC1	75%
CCN1CCN(C(c2cccs2)C(C)NS(=O)(=O)c2ccc(Br)cc2)CC1 (stereo unspecified)	13%
COCCOC(=O)C1=C(C)NC2=C(C(=O)CCC2)C1c1ccc2c(c1)OCO2 (stereo unspecified)	14%
O=CNC1CCCc2c1[nH]c1ccc(Cl)cc21 (stereo unspecified)	45%
COc1ccc(/C=N/n2cnnc2SCc2ccc(OC)cc2)cc1	108%

Single entries from the results shown.
Entry for `CCOc1ccc(Br)cc1/C=N/O` in AmpC nodet inh: 3%
Entry for `CC1=C(C)SC(=C(C#N)c2nnc(N3CCOCC3)n2-c2ccccc2)S1` in AmpC nodet inh: 72%
Entry for `O=C(Nc1ccc(CN2CCOCC2)cc1)c1cccc(F)c1` in AmpC nodet inh: -6%

In another format: two of the compounds above
CC(C)c1ccc(OC(=O)NCCO)cc1
  AmpC nodet inh: 5%

O=C(Nc1nc2c(s1)C(=O)CCC2)c1ccccc1
  AmpC nodet inh: 11%

The list goes on:
SMILES	AmpC nodet inh
CCOc1cccc(C(=O)Nc2cccnc2)c1	-4%
COCCCNC(=O)c1cc2c(=O)n(C)c3ccccc3c2n1C	4µM*[single pt active]
Cc1ccc(-n2nc3c(c2NC(=O)c2c(-c4ccccc4Cl)noc2C)CS(=O)(=O)C3)c(C)c1	80%
CCCC(=O)Nc1ccc(NC(=O)CCc2ccccc2)cn1	-9%
COc1ccc(C2CC(=O)NC3=C2C(=O)CCC3)cc1Cl (stereo unspecified)	-10%
Nc1ccc(C(=O)OCCCc2nc3ccccc3[nH]2)cc1	-13%
CCOC(=O)N1CCN(c2ccc(Cl)c(Cl)c2)CC1	29%
C=CCSC1=N/C(=C\C=C\c2ccco2)C(=O)S1	-13%
CC1(C)NC(=O)N(CC(O)COc2ccc(-c3ccc(C#N)cc3)cc2)C1=O (stereo unspecified)	11%
Cc1ccc(C2N(c3ccc(Cl)c(Cl)c3)C(=O)C3CCCN32)o1 (stereo unspecified)	70%
CCCCCCn1c(NCC)nc2c1c(=O)[nH]c(=O)n2C	0%
CCCCCCCCn1sccc1=O	4%
O=C(NCCc1ccccc1)c1cnc2sccn2c1=O	27%
Cc1cc(Cl)c(S(=O)(=O)N2CCSCC2)cc1OCC(N)=O	18%
Nc1nncn1C(=O)CCCOc1ccc(Cl)cc1Cl	26%
COc1cccc(-n2nnc3c(=O)n(Cc4ccccc4F)cnc32)c1	3%
O=C(CCN1C(=O)C2C3C=CC(C3)C2C1=O)Nc1ccccc1F (stereo unspecified)	2%
COC(=O)N1CCC[C@@]2(CCN(c3ccncc3)C2)C1	12%
O=C(CSc1nnc(Cn2nnc3ccccc32)o1)N(Cc1ccc(F)cc1)c1ccccc1	29%
CCOC(=O)N1CCC(N2CC34C=CC(O3)C(C(=O)Nc3ccc(F)cc3)C4C2=O)CC1 (stereo unspecified)	18%
COc1ccccc1C1NC(=O)CS1 (stereo unspecified)	4%
COc1cc2c(cc1OC)C(C)N(C(=O)CCN1C(=O)C3C4C=CC(C4)C3C1=O)CC2 (stereo unspecified)	32%
COc1ccccc1N1CCN(S(=O)(=O)c2ccccc2)CC1	15%
COCCNc1nc(-n2nc(C)cc2C)nc2sc3c(c12)CCCC3	97%
Cc1ncc(CO)c2cc(S(=O)(=O)c3ccc(F)cc3)c(=O)oc12	4µM*[single pt active]
N#CC1=C(N)N(c2ccccc2)C2=C(C(=O)CCC2)C1c1cccs1 (stereo unspecified)	-15%
COC(=O)c1ccc2c(c1)S(=O)(=O)NC(=NCCCN1CCOCC1)S2	12%
CCCN1CCC(N2CCN(c3ccccc3OC)CC2)CC1	4%
COC(=O)c1ccc(C(=O)Nc2ccc(N)cc2N)cc1	6%
CC(C)Cc1cc(C(=O)Nc2ccc3c(c2)OCO3)no1	4µM*[single pt active]
COC(=O)C1(CO)NC(c2cccs2)C2C(=O)N(c3ccccc3)C(=O)C21 (stereo unspecified)	0%
COc1cc(-c2ccc(NC(=O)CN3CCCCC3)c(OC)c2)ccc1NC(=O)CN1CCCCC1	50%
COc1ccc(NC(=O)c2cccs2)cc1OC	1%
CC(C)C(=O)Nc1ccccc1N1CCN(C(=O)c2ccccc2)CC1	-8%
COc1cccc(-n2c(Cc3cc(=O)[nH]c(=O)[nH]3)nnc2SCC(=O)N2CCCCC2)c1	4µM*[single pt active]
Cc1ccc(-n2c(SCC(N)=O)nnc2-c2cccnc2)c(C)c1	6%
O=S(=O)(c1ccccc1)c1nc(-c2ccco2)oc1NCc1cccnc1	5%
O=C1CC2CS(=O)(=O)CC2N1c1ccc(Oc2ccccc2)cc1 (stereo unspecified)	16%
CCOC(=O)C1=C(C)N=C2SC(C)C(=O)N2C1c1ccc(OCC)c(OCC)c1 (stereo unspecified)	103%
CCN1CCN(S(=O)(=O)c2ccc(S(=O)(=O)NCC3CCCO3)cc2)CC1 (stereo unspecified)	-4%
Cc1ccc(NC(=O)C2CC(=O)NC(Nc3cccc(C)c3)=N2)cc1 (stereo unspecified)	32%
CCOc1ccc(C(=O)C2CCN(C(=O)c3ccccc3C(=O)O)CC2)cc1	11%
COc1ccc2[nH]c(=O)c(CN(Cc3nnnn3Cc3ccc(F)cc3)CC3CCCO3)cc2c1 (stereo unspecified)	108%
Cc1ccc(C)c(N(CC(=O)NCc2ccco2)C(=O)CCC(=O)Nc2ccccn2)c1	66%
Oc1cc(Cl)cc(Cl)c1Cl	-12%
CC(C)(C)OC(=O)N1CCC(c2c(C(=O)O)cnn2-c2ccc(Cl)cc2)CC1	-12%
CCCSc1nnc(-c2ccccc2N)c(=O)[nH]1	-6%
O=C(O)C1C2C=CC(C2)C1C(=O)NCCc1cccc(Cl)c1 (stereo unspecified)	18%
CCOc1ccc(-c2nnc(-c3ccncc3)o2)cc1	18%
O=C(Nc1ccc(Cl)c(C(F)(F)F)c1)c1ccco1	-10%

The list goes on:
SMILES	AmpC nodet inh
COCc1nnc(N)s1	-6%
COCCCNC(=O)C1CC(=O)N(CCc2ccc(OC)c(OC)c2)C1 (stereo unspecified)	2%
O=C1CC(/C=C/c2ccco2)=Nc2ccccc2N1	1%
CCC(=O)NCC(c1cccs1)N1CCOCC1 (stereo unspecified)	-8%
COc1ccc(OC)c(S(=O)(=O)N2CCC(C(=O)NCCc3ccc(OC)c(OC)c3)CC2)c1	96%
O=C(NCCc1nc2ccccc2[nH]1)c1ccco1	-13%
C=C(C)CNCCN	-7%[5.75 µM]
Cc1cc(NS(=O)(=O)c2ccc(NC(=O)COc3ccccc3C(C)C)cc2)no1	4µM*[single pt active]
O=C(CN1CCc2ccccc2C1)N1CCN(S(=O)(=O)c2ccccc2)CC1	64%
Cc1csc(NC(=O)NC2(C(F)(F)F)Oc3ccccc3O2)n1	-8%
O=C(Cn1nnc(-c2ccccc2-n2cnnn2)n1)N1CCCCC1	0%
Cc1ccsc1C(=O)OCC(=O)N1CC(=O)Nc2ccccc21	-5%
COc1cc(OC)cc(OCC(O)Cn2ccnc2)c1 (stereo unspecified)	-2%
CC(C)(C)c1ccc(S(=O)(=O)/C=C\C#N)cc1	1%&1%
Cc1c(NC(=O)Cn2nc(C(F)(F)F)c3c2CCCC3)c(=O)n(-c2ccccc2)n1C	12%
O=C(NC1CC1)c1cc2c(s1)-c1ccccc1OC2	18%
O=C(Nc1nccs1)C1C2CC3OC(=O)C1C3C2 (stereo unspecified)	-10%
COc1ccc(Oc2ncc3nc(-c4ccc(Cl)cc4)c(=O)n(C)c3n2)cc1	-4%
Cc1cccc(-c2nnc(NC(=O)c3ccc(Cl)cc3)o2)c1	-16%
O=C(OCC(=O)c1ccco1)c1ccc2ncsc2c1	-13%
COc1cccc(C2=NOC(C(=O)NCCN3CCOCC3)C2)c1 (stereo unspecified)	8%
CN1CCN(CCCN)CC1	3%[5.75 µM]
COc1cc(CN(C(=O)c2ccco2)c2ccc(C)cc2)ccc1O	13%
CC(C)c1c(O)nc(SCCC(=O)O)[nH]c1=O	-2%
CCCCCn1c(SCC#N)nc2cc(C(=O)NCC3CCCO3)ccc2c1=O (stereo unspecified)	94%
O=c1oc2c(CN3CCOCC3)c(O)ccc2c2c1CCCC2	7%
CCCCC(=O)N(C)C	2%
COc1cc(CNC2CCC(C)C2)cc(OC)c1 (stereo unspecified)	-11%
O=C(O)C1C2CCC(C2)C1C(=O)Nc1nc2ccccc2s1 (stereo unspecified)	-5%
O=C(Cc1cccs1)Nc1ccccn1	1%
O=C(NCC1CCCO1)C(C(=O)c1ccccc1)n1ccccc1=O (stereo unspecified)	-5%
CCS(=O)(=O)N1CCCC(C(=O)NC2CCCCC2C)C1 (stereo unspecified)	7%

Filtered by structure, those above with a CF3 group (3)
SMILES	AmpC nodet inh
O=C(Nc1ccc(Cl)c(C(F)(F)F)c1)c1ccco1	-10%
Cc1csc(NC(=O)NC2(C(F)(F)F)Oc3ccccc3O2)n1	-8%
Cc1c(NC(=O)Cn2nc(C(F)(F)F)c3c2CCCC3)c(=O)n(-c2ccccc2)n1C	12%
